miR-21 FLuc: raises the signal of a miR-21 reporter; Potency, µM (highest dose often 38.3 µM), for the others: at the top dose reporter change, positive = more light; HeLa miR-21 FLuc reporter, luciferase, 48 h; 340,000 tested, under 10 active; AID 2288; active = well fitted rising curve with a large enough effect; inconclusive = small, poorly fitted or top-dose-only effect; inactive = no such curve, though single readings can be large or run the other way;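 further: % of control where 0% means no effect; miR-21 action dims this reporter so a rising signal means less miR-21 action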
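HeLa cells stably expressing CMV-driven firefly luciferase with a downstream miR-21 binding sequence, endogenously expressing miR-21, were treated with titrations (up to about 40uM final) for 48 hours at 37 degree Celsius. Luciferase luminescence was read after lysis.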
Rango release inh: inhibition of RanGTP-driven Rango-importin beta dissociation; O95149+P62826; Biochemical FRET Rango-importin beta, RanGTP-induced dissociation; Potency, µM (top dose mostly 46.1 µM), for inactives: top-dose activity change, negative = inhibition; 340,000 compounds, 0.071% hits; active means falling FRET ratio curve, often poorly fitted, with flat reads before Ran was added; inconclusive means other falling curves, or compound fluorescence or quenching; inactive means flat or rising ratio curve;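 further: potency means the concentration at half of the fitted maximal effect; % of control where 0% means no effect; nearly all actives have a fitted effect of over 45% in size; -100% = wells without RanGTP and RCC1; the record marks most hits as doubtful in a second field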
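Recombinant Rango FRET biosensor (EYFP–snurportin 1 IBB–cerulean CFP10) at 0.1 uM premixed with 0.25 uM importin beta in PBS, 1 mM DTT, 0.02% Tween-20, 0.1% BSA. Compound added 5 min; RanGTP-RCC1 (0.6 uM Ran, 2 mM GTP, 0.2 uM RCC1) then triggers release, read at 45 min.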
GLA inh pH 4.5: blocks human alpha-galactosidase A at pH 4.5; purified enzyme, 4-MU-alpha-Gal fluorescence, pH 4.5; P06280; activity change, negative = inhibition, % at 105 µM; 230,000 tested, under 10 active; inconclusive = small, poorly fitted or top-dose-only inhibition, or a rising curve; inactive = flat fitted curve, though single readings scatter; no compound was filed as active;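 further: 0% = full activity with enzyme and -100% = basal without enzyme; dose as in the result columns while the protocol names 77 µM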
Target sequence (P06280 whole entry, looked up): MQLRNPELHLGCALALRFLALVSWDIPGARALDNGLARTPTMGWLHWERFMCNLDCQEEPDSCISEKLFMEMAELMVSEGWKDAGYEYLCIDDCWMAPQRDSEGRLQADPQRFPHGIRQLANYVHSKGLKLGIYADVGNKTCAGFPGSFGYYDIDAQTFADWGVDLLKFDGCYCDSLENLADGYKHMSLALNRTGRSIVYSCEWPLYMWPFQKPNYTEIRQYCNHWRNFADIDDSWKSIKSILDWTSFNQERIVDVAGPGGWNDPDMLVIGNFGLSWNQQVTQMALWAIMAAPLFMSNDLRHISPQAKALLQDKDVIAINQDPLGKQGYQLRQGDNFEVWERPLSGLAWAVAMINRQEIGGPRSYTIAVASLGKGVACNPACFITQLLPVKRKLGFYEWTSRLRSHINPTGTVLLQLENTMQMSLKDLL
Rango complex inh: prevents formation of the Rango-importin beta complex. Rango CFP/YFP FRET sensor + importin beta, 45 min. Potency, µM (series often up to 92.2 µM), for inactives: top-dose inhibition of complex formation. Q14974. AID 540263. 340,000 compounds, 0.031% hits; active = rising FRET ratio curve, often small or poorly fitted; inconclusive = mostly compound fluorescence or quenching in the first reads; inactive = flat curves in all reads;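 further: potency means the concentration at half of the fitted maximal effect; 0% = DMSO wells and 100% = buffer wells lacking importin beta; nearly all actives have a fitted effect of over 15% in size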
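Inhibition scored from the CFP 486 nm/YFP 530 nm FRET ratio 45 min after adding 0.125 microM importin beta to 50 nM Rango biosensor preincubated 5 min with compound (room temperature, PBS with DTT, Tween-20, BSA). No-importin wells as positive control.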
Numbers without * were called inactive; ? = inconclusive; / = not tested or not shown; & = joins results of further samples. Some of the compounds tested; count on the stated rates, not on these rows.

SMILES | miR-21 FLuc | Rango release inh | GLA inh pH 4.5 | Rango complex inh
CCOC(=O)c1ccc(S(=O)(=O)N2CCC(C(=O)Nc3nnc(C)o3)CC2)cc1 | / | 10% | / | 0.0%
CCC(=O)N1CCCc2cc(S(=O)(=O)CCC(=O)Nc3ccccc3C)ccc21 | -5% | -1% | / | 8.2%
O=C(NNC(=S)NC(=O)c1cn(-c2ccccc2)nc1-c1ccccc1)c1ccncc1 | 24% | 1% | -4 | 0.4%
N#CCCN(C(=O)COC(=O)CCC(=O)c1cccs1)c1ccccc1 | / | 16% | / | -6.1%
COc1cccc(C(=O)CSc2nnc(CNS(C)(=O)=O)n2-c2ccc(C)cc2)c1 | -4% | 3% | 1 | -1.2%
COC(=O)c1ccc(CNC(=O)COC(=O)CCC2CCCC2)cc1 | -10% | 5% | -3 | 0.2%
O=C(CSCc1ccc(Cl)cc1)N/N=C/c1ccccc1 | -4% | -15% | 0 | -2.1%
CC(=O)c1ccc(NC(=O)C(C)OC(=O)C2CC(=O)N(c3ccc4c(c3)OCCO4)C2)cc1 (stereo not given) | 0% | 28% | / | 2.3%
CCN(CC)CCn1c(=N)n(CC(O)c2ccc(OC)c(OC)c2)c2ccccc21 (stereo not given) | 1% | -2% | 7 | -2.2%
CC(C)(C)c1ccc(OCCCC(=O)Nc2cccc(S(=O)(=O)N3CCOCC3)c2)cc1 | / | 0% | / | -1.1%
C=CCn1c2ccccc2c2nnc(SCc3[nH]c(=O)[nH]c3C(=O)CCCCC(=O)OCC)nc21 | -13% | 0% | 6 | 7.6%
O=C(c1ccc(Cl)cc1Cl)N1CCN(c2ccc(N3CCOCC3)nn2)CC1 | / | ? | / | -4.1%
Cc1nnc(SCC(=O)Nc2ncc3c(n2)CC(c2ccccc2)CC3=O)s1 (stereo not given) | 0% | -3% | 5 | 5.6%
O=C(c1cccc(Cl)c1)N1CCC2(CC1)NCCc1[nH]cnc12 | -1% | -10% | / | ?
O=C(OCc1ccc(Br)cc1F)c1cc2ccccc2oc1=O | 1% | 11% | / | 2.1%
O=C(c1ccco1)N1CCN(C(=O)c2cnn3c2NC(c2cccs2)CC3C(F)(F)F)CC1 (stereo not given) | 5% | 16% | -3 | ?
CCCCNC(=O)c1onc(CSc2cccc(C)c2)c1C(=O)O | -21% | 22% | 6 | ?
CCOC(=O)N1CCC(NC(=O)CSc2cc(=O)n(CC)c3ccccc23)CC1 | -11% | -14% | -2 | -0.9%
CCSc1ccc(-c2nn(-c3ccccc3)cc2/C=C(/C#N)C(=O)NCCCOC)cc1 | -9% | ? | ? | ?
COc1cc(NC(=O)C2CC(=O)N(Cc3ccco3)C2)c(OC)cc1Cl (stereo not given) | / | 1% | / | -0.8%
O=C1c2ccccc2C(=O)N1SC1CCCCC1 | 12% | 0% | -15 | -4.8%
CCC(=O)Nc1ccc(/C(C)=N/NC(=O)c2c(Br)c(C)nn2C)cc1 | 23% | 8% | 0 | 0.0%
COc1ccc(N2CCN(C(=O)[C@@H]3CCCN3C3=NS(=O)(=O)c4ccccc43)CC2)cc1 | / | -1% | / | 2.3%
Cc1ccc(C(=O)NCC(=O)OCCOc2cccc(Cl)c2)cc1 | / | -16% | / | 4.2%
COc1ccccc1N1CCN(C(=O)c2ccc(CN3CCc4ccccc4C3)cc2)CC1 | 12% | 2% | 14 | 3.8%
CCOc1ccc(OCCCC(=O)Nc2nc3ccccc3[nH]2)cc1 | 1% | 0% | -16 | -1.7%
Cc1nc(NC(=O)c2ccc(Cl)cc2)sc1Cc1ccc2c(c1)OCO2 | 12% | -13% | 8 | -1.7%
CN(C(=O)COC(=O)c1cccc(S(=O)(=O)N2CCCCC2)c1)C1CCS(=O)(=O)C1 (stereo not given) | / | 5% | / | -4.4%
Nc1cc(=O)[nH]c(SCC(=O)Nc2cccc(Cl)c2Cl)n1 | ? | 9% | 0 | -0.6%
CN1CCN(C(=O)CSc2nc3c(c(=O)n(C)c(=O)n3C)n2C)CC1 | 1% | 15% | / | -0.2%
O=C(CSCC(=O)NN=Cc1ccccc1O)NN=Cc1ccccc1O | / | -5% | / | -1.3%
COc1ccc(OC)c(COC(=O)c2cccc(S(=O)(=O)N3CCCCC3)c2)c1 | / | 2% | / | 0.3%
CC(C)CCNC(=O)C1CCC(CNc2c(N3CCCC3)c(=O)c2=O)CC1 (stereo not given) | -1% | -19% | 7 | 0.1%
O=C(COc1ccccc1[N+](=O)[O-])Nc1ccc(N2CCN(C(=O)c3cccs3)CC2)cc1 | 28% | 1% | -4 | 3.5%
Cc1c(NS(=O)(=O)c2cc(C(=O)NCc3cccnc3)cc(Cl)c2Cl)c(=O)n(-c2ccccc2)n1C | / | -11% | / | -4.4%
NC(=O)C1CCN(C(=O)CCSc2ccccc2)CC1 | -47% | 14% | -5 | -1.0%
CCN(CC)c1ccc(NC(=O)c2cccc(C)c2OC)c(C)c1 | -51% | -10% | -4 | -3.5%
Cc1[nH]c2ccccc2c1C(C#N)(C#N)C1C(=O)c2ccccc2C1=O | 11% | ? | -8 | ?
CN(C)S(=O)(=O)c1cccc(NC(=O)c2cc(=O)[nH]c(=O)[nH]2)c1 | 1% | 7% | / | 1.1%
O=C(NCCSc1ccccc1)c1ccccc1 | -52% | 3% | -4 | 2.2%
O=C(OCCNc1nc(-c2ccccc2)nc2ccccc12)c1cccnc1 | 4% | 10% | 3 | -2.9%
COc1ccccc1OCC(=O)NC1CCCCCC1 | -38% | 4% | 2 | -2.3%
O=S(=O)(c1ccc2ncn(O)c2c1)N1CCOCC1 | -1% | 8% | -4 | 2.9%
Cc1ccc(S(=O)(=O)Nc2cccc(CP(=O)(c3ccccc3)c3ccccc3)c2)cc1 | 5% | 0% | -9 | -3.7%
Cc1ccc2c(c1)c1c(n2CC(O)CNC(C)(C)C)CCCC1 (stereo not given) | -21% | ? | -4 | 3.4%
COc1ccc(F)cc1S(=O)(=O)Nc1cc2c3c(c1)CC(=O)N3CCC2 | / | -16% | / | 0.0%
CCCc1cc(=O)[nH]c(SCC(=O)Nc2ccc(OC(F)F)cc2)n1 | -8% | 2% | 6 | 0.6%
CCOC(=O)C(=O)Nc1ccc(OCc2ccccc2)cc1 | 4% | -11% | 5 | 1.3%
O=C(CSc1nncs1)N1CCN(S(=O)(=O)c2ccccc2)CC1 | 0% | 4% | -1 | 0.1%
CCSc1cc(C)nc2c(-c3ccc(Cl)cc3)c(C)nn12 | -4% | -15% | 4 | 0.8%

Full records, looked up by structure. Screens in order: miR-21 FLuc, Rango release inh, GLA inh pH 4.5, Rango complex inh
CCOC(=O)C(=O)Nc1ccc(OCc2ccccc2)cc1 is entered as 4%, -11%, 5, 1.3%
COc1ccccc1N1CCN(C(=O)c2ccc(CN3CCc4ccccc4C3)cc2)CC1 is entered as 12%, 2%, 14, 3.8%

Next compounds
SMILES | miR-21 FLuc | Rango release inh | GLA inh pH 4.5 | Rango complex inh
COc1ccc(Cc2noc(CN3CCCN(C4Cc5ccccc5C4)CC3)n2)cc1OC | -2% | -9% | 7 | 1.6%
C=CCNC(=O)COC(=O)CNC(=O)c1cc(Cl)cc([N+](=O)[O-])c1 | -1% | 10% | -3 | -4.2%
CN(C)S(=O)(=O)c1ccc(NC(=O)COC(=O)C2CC3CCCC(C2)C3=O)cc1 (stereo not given) | 0% | 0% | -1 | -0.3%
O=C(Nc1ccccc1)C1CCN(C(=O)c2ccc([N+](=O)[O-])cc2)CC1 | 0% | 9% | 2 | -0.3%
Cc1ccc(NC(=O)CN2C(=O)NC(C)(C3CC3)C2=O)c([N+](=O)[O-])c1 (stereo not given) | / | 2% | / | -1.3%
O=C(CCl)N1N=C(c2cccs2)CC1c1ccco1 (stereo not given) | ? | 1% | 2 | -2.7%
CCOc1ccc(S(=O)(=O)n2cc(-c3ccccc3)c(N)n2)cc1 | -13% | 14% | 5 | 0.6%
COC(=O)c1c(NC(=O)COC(=O)CCS(=O)(=O)c2ccc(C)cc2)sc(C)c1C | -9% | 5% | 2 | -4.0%
CC1=NN(c2ccccc2)C(=O)/C1=C/c1cc(C)n(C2CC2)c1C | 0% | -2% | 10 | ?
COc1ccc(Cn2c(CCC(=O)Nc3ccc(C)c(C)c3)nc3cccnc32)cc1 | -6%&4% | -5% | -5 | -7.3%
Cc1ccc(S(=O)(=O)N(Cc2ccccc2)c2ccccc2C(=O)NCc2ccco2)cc1 | 4% | -11% | -13 | 9.6%
CCCCCC1CC(CC(=O)NC(=S)Nc2ccc([N+](=O)[O-])cc2)C(=O)O1 (stereo not given) | -2% | -5% | -9 | 0.7%
NC(=O)C1CCN(c2cc(Cl)ccc2[N+](=O)[O-])CC1 | 2% | 7% | -20 | -0.1%
CC(C)n1c(CNC(=O)c2ccccc2)nc2ccccc21 | -12% | 8% | -3 | -1.1%
Cc1snc(S(=O)(=O)/C(C#N)=N\Nc2ccccc2)c1C#N | -27% | -5% | 2 | 3.3%
Cc1c(CCO)c(=O)n(C)n1C(=O)c1ccc(F)cc1 | -5% | -9% | -16 | ?
CCOC(=O)CC(=O)CSc1nc2c(sc(=S)n2-c2ccc(OCC)cc2)c(=O)[nH]1 | 25% | 1% | -2 | -5.4%
Cc1cccc(OCC(=O)Nc2nc(-c3ccncc3)cs2)c1 | / | 5% | / | 4.7%
CCCC(=O)Nc1sc2c(c1C#N)CCCC2 | -42% | -8% | -4 | -1.3%
O=c1c2cc(-c3ccccc3)sc2ncn1-n1cccc1 | -46% | 0% | 0 | 4.0%
Cc1cccc(NC(=O)c2ccc(S(=O)(=O)N3CCN(C)CC3)cc2)c1C | -6% | 27% | / | -1.1%
CC(OC(=O)CCc1nc2ccccc2[nH]c1=O)C(=O)c1ccccc1 (stereo not given) | -4% | -9% | 8 | 7.5%
CC(NS(=O)(=O)/C=C/c1ccccc1)c1ccccc1 (stereo not given) | -4% | 1% | -9 | 6.2%
CCOc1ccc(NC(=O)NNC(=O)COc2ccc3ccccc3c2)cc1 | 1% | 16% | / | ?
COc1ccc(OC)c(NC(=O)CCN2CCN(c3ccccc3)CC2)c1 | -8% | 8% | -8 | 3.1%
CCOc1cc(/C=C/C(=O)c2ccc(O)cc2)ccc1OCC(=O)N(C)C | ? | 2% | -2 | ?
O=C(Cn1c(=O)sc2ccccc21)N1CCOCC1 | 2% | 2% | -8 | 2.0%
O=C1CC(c2ccccc2)Sc2nc(-c3ccccc3)c(-c3ccccc3)n21 (stereo not given) | -6% | -5% | 9 | -0.8%
Oc1c(Cl)cc(Cl)cc1/C=N/Nc1ncc(Br)cn1 | 1% | -13% | -4 | ?
CC(C)(CNC(=O)c1cc(Cl)c(O)c(Cl)c1)N1CCCCC1 | -1% | -2% | / | 2.9%
COC(=O)c1ccccc1NC(=O)Cc1nc(-c2ccccc2)sc1-c1ccc(C)cc1 | -10% | 3% | -12 | 3.9%
C[C@@H]1CN(S(=O)C(C)(C)C)[C@@H](CCO)/C1=C\c1ccccc1 (stereo not given in full) | / | 7% | / | -2.4%
Cc1cccc(N2CCN(C(=O)n3ccnc3)CC2)c1C | 25% | ? | 5 | ?
CC(C)(C)NC(=O)CN(C(=O)c1ccc(CN2CCOCC2)o1)c1ccc2c(c1)OCCO2 | -2% | -8% | 6 | -0.3%
COc1ccc(-n2nnnc2SCc2nc3ccccc3s2)cc1 | -56% | -9% | 7 | ?
COc1ccc(C(=O)NC2=Nc3ccccc3N=C(C)C2c2ccccc2)cc1 (stereo not given) | -73% | 2% | -10 | -4.7%
CCN(CC)CCCN1C(=O)C(O)=C(C(=O)c2ccc(C)o2)C1c1ccc(C)o1 (stereo not given) | -5% | -18% | 1 | -2.8%
O=C(c1cc(COc2ccc(F)cc2Cl)on1)N1CCc2sccc2C1 | -23% | 0% | / | 1.9%
O=C(CCc1ccc(O)c(O)c1)N/N=C/c1cc2c(cc1[N+](=O)[O-])OCO2 | 1% | 0% | / | -4.0%
Cc1cc(N2CCOCC2)n2ncc(-c3ccccc3)c2n1 | 6% | 0% | 3 | 0.0%
C=C(C)CSc1nc(N)c(C#N)c(-c2ccc(C)cc2)c1C#N | -19% | -22% | 10 | -4.1%
COc1ccc2[nH]c3c(c2c1)CCN1C(=O)C(CC(=O)NCc2ccco2)C[C@H](C(=O)N(C(C)C)C(C)C)[C@@]31C (stereo not given in full) | / | -2% | / | -2.5%

Compound activity from PubChem.
